# KCNQ2 inh = KCNQ2 channel blockers in CHO-K1 cells – cell-based, FluxOR thallium flux, B-score, primary screen (AID 2156). O88943. 20 min; hits give low values; only compounds with negative scores are shown here; some inactives read as strong as hits. B-score at 10 µM. 1.1% of 310,000 active;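 active = fluorescence ratio B-score at most minus 3 library SDs, with starting brightness B-score within 2 library SDs, cut at about -5.5 in these data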
# Target sequence (O88943 whole entry, looked up): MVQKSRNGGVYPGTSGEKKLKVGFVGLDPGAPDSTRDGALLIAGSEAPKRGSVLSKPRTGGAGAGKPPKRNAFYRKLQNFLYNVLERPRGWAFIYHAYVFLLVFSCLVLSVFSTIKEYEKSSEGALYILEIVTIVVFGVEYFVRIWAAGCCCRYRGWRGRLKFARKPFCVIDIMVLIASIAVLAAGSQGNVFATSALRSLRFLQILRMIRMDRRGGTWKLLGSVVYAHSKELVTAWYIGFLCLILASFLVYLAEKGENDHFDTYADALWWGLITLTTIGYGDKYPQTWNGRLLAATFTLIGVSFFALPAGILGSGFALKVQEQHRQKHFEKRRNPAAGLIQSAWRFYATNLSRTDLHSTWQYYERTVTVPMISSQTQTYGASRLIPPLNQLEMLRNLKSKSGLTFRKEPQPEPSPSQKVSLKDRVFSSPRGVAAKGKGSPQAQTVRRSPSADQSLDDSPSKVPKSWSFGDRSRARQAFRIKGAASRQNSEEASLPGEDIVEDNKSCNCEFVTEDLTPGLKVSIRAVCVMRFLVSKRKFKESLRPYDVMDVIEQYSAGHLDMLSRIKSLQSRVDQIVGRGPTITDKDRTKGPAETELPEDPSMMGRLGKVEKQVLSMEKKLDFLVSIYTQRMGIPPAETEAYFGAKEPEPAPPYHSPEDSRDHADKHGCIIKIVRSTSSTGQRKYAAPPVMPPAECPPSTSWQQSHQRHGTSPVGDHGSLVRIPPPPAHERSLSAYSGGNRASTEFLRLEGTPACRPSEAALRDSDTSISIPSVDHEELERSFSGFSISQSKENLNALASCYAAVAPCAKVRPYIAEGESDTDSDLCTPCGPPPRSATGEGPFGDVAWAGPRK
# KCNQ2 inh baseline = recorded beside KCNQ2 inh, whose call it bears; B-score; measured here: initial fluorescence intensity artifact check;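 brightness before thallium and not channel activity; 0 = typical well and far values either way flag optical interference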
# The depositor's hits bear a star; i = inactive. An excerpt; rates above refer to the full screens.
structure	KCNQ2 inh baseline	KCNQ2 inh
CC(C)C[C@H](NC(=O)c1nc[nH]c1C(=O)NCC(=O)OCc1ccccc1)C(=O)OCc1ccccc1	-0.66	i
CSCCC(N=C(NS(=O)(=O)c1ccc(C)cc1)c1ccccc1)C(=O)O (configuration not stated)	0.02	i
COc1cccc(N2CCN(c3ccc4nnc(CCC(=O)Nc5ccccc5OC)n4n3)CC2)c1	-0.55	i
Cc1occc1-c1nnc(SCC(=O)c2ccc(Cl)cc2)n1C	-0.38	i
COc1ccc(CN2CCN(Cc3cccc(Oc4ccccc4)c3)CC2)c(OC)c1OC	0.1*	-7.51*
CCOc1ccc(NC(C)C(=O)N/N=C/c2cccs2)cc1 (configuration not stated)	0.44	i
N=c1oc2ccccc2cc1-c1nc(-c2ccc(Cl)cc2)cs1	0.87	i
CCn1cc(C(=O)OCC(=O)c2ccc(Cl)cc2)c(=O)c2ccc(C)nc21	0.52	i

# Grouped by structure: those above with a carbonyl joined to an NH by a bond outside any ring
structure	KCNQ2 inh baseline	KCNQ2 inh
CC(C)C[C@H](NC(=O)c1nc[nH]c1C(=O)NCC(=O)OCc1ccccc1)C(=O)OCc1ccccc1	-0.66	i
COc1cccc(N2CCN(c3ccc4nnc(CCC(=O)Nc5ccccc5OC)n4n3)CC2)c1	-0.55	i
CCOc1ccc(NC(C)C(=O)N/N=C/c2cccs2)cc1 (configuration not stated)	0.44	i

# Profiles as entered above. Order of screens: KCNQ2 inh baseline	KCNQ2 inh
# `COc1cccc(N2CCN(c3ccc4nnc(CCC(=O)Nc5ccccc5OC)n4n3)CC2)c1` in the list: -0.55	i
# `COc1ccc(CN2CCN(Cc3cccc(Oc4ccccc4)c3)CC2)c(OC)c1OC` in the list: 0.1*	-7.51*
# `Cc1occc1-c1nnc(SCC(=O)c2ccc(Cl)cc2)n1C` in the list: -0.38	i
# `CCn1cc(C(=O)OCC(=O)c2ccc(Cl)cc2)c(=O)c2ccc(C)nc21` in the list: 0.52	i
# `CCOc1ccc(NC(C)C(=O)N/N=C/c2cccs2)cc1` (configuration not stated) in the list: 0.44	i

# Next part:
structure	KCNQ2 inh baseline	KCNQ2 inh
Cc1ccc(NC(=S)NC(=O)c2ccc(F)cc2)cc1S(=O)(=O)Nc1ccccc1Cl	0.02	i
CCCCS(=O)(=O)N1CN(S(=O)(=O)CCCC)C2NC(=O)NC21 (configuration not stated)	0.92	i
CCOc1ccc(CN2CCNC(=O)C2CC(=O)N(C)Cc2nonc2C)cc1 (configuration not stated)	1.57	i
CCOC(=O)C1CCN(C(=O)c2cc(S(=O)(=O)N3CCOCC3)c(Cl)cc2Cl)CC1	-1.46	i
Cc1c(NC(=O)CSc2ccc(Cl)cc2)cccc1-c1nc2cc(Cl)ccc2o1	2.54	i
Cc1cc(C)cc(NC(=O)CSc2nc(=O)n3cc(C)ccc3n2)c1	1.47	i
CC1CN(C(=O)CCC(=O)NC2CCCCC2)c2ccccc2S1 (configuration not stated)	0.01	i
O=S(=O)(c1ccc2ccccc2c1)N1CCN(C(=S)Nc2ccc(F)c(Cl)c2)CC1	1.98	i

# Remaining list, next part
structure	KCNQ2 inh baseline	KCNQ2 inh
COC(=O)[C@@]12CCCCN1[C@H](c1ccc(SC3CCCCC3)cc1)[C@@H]1C(=O)N(C)C(=O)[C@@H]12	1.61	i
O=C(CN(Cc1ccccc1)C1=NCCS1)c1ccc(Cl)cc1	2.68	i
CC(C)NOC(=O)c1ccc(Cl)cc1	-1.27	i
Cc1ccc2c(=O)[nH]c(Cc3ccccc3C(=O)O)nc2c1	0.96	i
Cc1cccc(NC(=O)c2ccc(N(C)C3CCCCC3)c([N+](=O)[O-])c2)n1	0.49	i
CCN(CC(=O)Nc1ccccc1C(F)(F)F)C(=O)c1ccccc1Cc1ccccc1	-0.17	i
COc1ccccc1N1CCN(c2ncnc3sc(C)c(-c4ccccc4)c23)CC1	0.59	i
CCCCNc1cc(C(=O)O)cc(S(N)(=O)=O)c1Oc1ccccc1	-1.99	i

# Next part.
structure	KCNQ2 inh baseline	KCNQ2 inh
CCCOC(=O)c1ccc(Oc2cn[nH]c2-c2ccc(OCC(=O)NN)cc2O)cc1	-1.39	i
Cn1c(=O)c2c(nc(Sc3ncnn3CC(=O)N3CCOCC3)n2C)n(C)c1=O	0.5	i
CCOC(=O)C1CCCN(C(=O)CCNC(=O)Cn2ccc3ccccc3c2=O)C1 (configuration not stated)	0.88	i
O=C(COc1ccc(Cl)cc1)NNC(=O)c1ccccc1C(=O)O	-0.13	i
OCCNC(=S)Nc1ccc2c(c1)OCCO2	0.34	i
CCN(CC)S(=O)(=O)c1ccc(Cl)c(NC(=O)COC(=O)c2ccc([N+](=O)[O-])o2)c1	-1.24	i
COc1cccc(NC(=O)C(c2ccccc2)N2CCN(c3ccccn3)CC2)c1 (configuration not stated)	1.17	i
O=C(CCC1CCCCC1)Nc1c[nH]c(=O)[nH]c1=O	0.43	i

# Additional entries follow:
structure	KCNQ2 inh baseline	KCNQ2 inh
Cc1ccc(NC(=S)NC2CCCC2)c(C)c1	0.87	i
CC(=O)C1=C(O)C(=O)N(c2ccccn2)C1c1ccccc1[N+](=O)[O-] (configuration not stated)	0.19	i
N#CC1=C(N)Oc2cc3c(cc2C1c1ccc(Cl)cc1)OCO3 (configuration not stated)	-0.51	i
CN(C)S(=O)(=O)c1cccc(C(=O)N=C2N=C3C=CC(Cl)=CN3Cc3ccccc32)c1	2.24	i
N#C/C(=C/c1cccs1)c1nc2ccccc2[nH]1	-0.05	i
COc1ccccc1NS(=O)(=O)c1cc(NC(=O)C2CCCC2)ccc1N1CCOCC1	1.24	i
Nc1nonc1-c1nc2ccccc2n1Cc1ccc(Cl)cc1	-0.49	i
Cc1nn(-c2nc3ccccc3[nH]2)c(N)c1-c1ccccc1	-0.03	i

# Next part
structure	KCNQ2 inh baseline	KCNQ2 inh
CCCc1c(C(=O)N/N=C/c2ccccc2C(F)(F)F)nnn1-c1nonc1N	1.62	i
CC(=O)Nc1ccc(NC(=O)C(C)OC(=O)C2CCN(S(=O)(=O)c3ccc4c(c3)OCCO4)CC2)cc1 (configuration not stated)	1.44	i
COC(=O)c1ccccc1NC(=O)N1c2ccccc2CC1C (configuration not stated)	-1.34	i
Cc1cccc2sc(NC(=O)c3cc(S(=O)(=O)N(C)C)ccc3N3CCCC3)nc12	0.2	i
CCN(CC)CCCNC(=O)c1cc2c(=O)n(C)c3ccccc3c2n1C	-1.14	i
Cc1ccccc1-n1c(CSC(=N)N)nc2ccccc2c1=O	0.8	i
COCCCNC(=O)CN1C(=O)COc2ccc(S(=O)(=O)N3CCOCC3)cc21	1.48	i
COc1ccc2c(c1)CCC/C2=N\NC(=O)c1ccoc1C	0.93	i

# (more compounds)
structure	KCNQ2 inh baseline	KCNQ2 inh
Cc1cc(N2CCCC2=O)cc(C)c1S(=O)(=O)Nc1c(C)nn(C)c1C	-0.23	i
COc1cccc(C(=O)N(C)c2nnc(-c3ccncc3)s2)c1	1.23	i
O=C(Nc1ccc(S(=O)(=O)N2CCOCC2)cc1)c1cc(-c2ccccc2O)n[nH]1	-0.36	i
CSCCC(C(=O)NCc1cccs1)N1C(=O)c2ccccc2C1=O (configuration not stated)	-1.02	i
Cc1ccc(C)c(CN2C(=O)c3ccccc3S(=O)c3ccc(C(=O)NCCCN4CCCC4)cc32)c1 (configuration not stated)	0.01	i
COc1ccc(C(=O)Nc2ccccc2C(=O)NC(Cc2ccc(O)cc2)C(=O)NNC(=O)c2ccc(C)cc2)cc1 (configuration not stated)	0.55	i
Cc1ccc(S(=O)(=O)N2CCOCC2)cc1NC(=O)CSc1cccc[n+]1[O-]	-0.88	i
COc1ccc(S(=O)(=O)NCc2ccc(C(=O)N3CCc4ccccc4C3)cc2)cc1	0.02	i

# Continuation.
structure	KCNQ2 inh baseline	KCNQ2 inh
COc1ccc([C@H]2/C=C\CN(S(=O)(=O)c3ccc4ccccc4c3)[C@@H](C)C(=O)N2Cc2ccc(F)cc2)cc1	-0.87	i
O=C(Cc1ccccc1)Nc1ccc(NC(=O)c2ccco2)cc1Cl	-0.96	i
Nc1nc(Nc2ccccc2)nc(NCc2ccccc2)c1[N+](=O)[O-]	0.62	i
O=C(CCCC(=O)N(CC(=O)NC1CCCCC1)c1ccc(F)cc1)Nc1ccccn1	-0.93	i
COc1ccc(C(=O)NCc2nnc(SCC(=O)Nc3cc(C)on3)o2)cc1OC	0.03	i
Cc1csc(CN(C)C(=O)CC2C(=O)NCCN2Cc2ccc(-c3ccccc3)cc2)n1 (configuration not stated)	-0.56	i
Cc1ccc(C(=O)NCCSCc2ccccc2)cc1[N+](=O)[O-]	0.04	i
N#CC1=C(N)Oc2cc(O)ccc2C1C1CCCCC1 (configuration not stated)	1.52	i

# Carrying on:
structure	KCNQ2 inh baseline	KCNQ2 inh
COc1ccccc1C(=O)NCC(=O)OC(C)C(=O)NC(=O)NC1CCCCC1 (configuration not stated)	1.21	i
Cc1cccc(C2c3[nH]c4ccccc4c3CCN2C(=O)c2noc3c2CCCC3)n1 (configuration not stated)	0.17	i
COc1ccc(/C=C(\C#N)C(=O)Nc2cc(S(=O)(=O)N3CCCCC3)ccc2N2CCCCC2)cc1	1.1	i
CCOCCOC(=O)NCCCCCCNC(=O)OCCOCC	-1.71	i
Cc1cc(NS(=O)(=O)c2ccc(NC(=O)Nc3cccc(Cl)c3)cc2)no1	-0.28	i
CN1CCN(C(=O)c2cc3c(n(-c4ccccc4)c2=O)CC(C)(C)CC3=O)CC1	0.96	i
COc1ccc(CC(=O)OCN2C(=O)c3ccccc3C2=O)cc1OC	1.53	i
Cc1c(C(=O)OC(C)C)sc(NC(=O)c2cccnc2)c1C#N	1.62	i

# Further compounds:
structure	KCNQ2 inh baseline	KCNQ2 inh
CCCc1[nH]nc2c1C(C1CCCCC1)C(C#N)=C(N)O2 (configuration not stated)	1.47	i
Cc1ccc(NS(=O)(=O)c2cccc(C(=O)NCCCN3CCCC3=O)c2)cc1	-0.6	i
CN1CCN(C2Cc3ccc(F)cc3Sc3cc(F)c(Cl)cc32)CC1 (configuration not stated)	0.78	i
CC1(C(=O)OCC(=O)N2c3ccccc3Sc3ccccc32)CC1(Cl)Cl (configuration not stated)	-0.04	i
OC(CNCc1ccc(Cl)c(Cl)c1)c1ccccc1 (configuration not stated)	0.75	i
O=C(CCN1CCOCC1)c1ccc(Cl)cc1	-0.28	i
Cc1ccc(-n2c(C)cc(C(=O)COC(=O)c3ccc[nH]c3=O)c2C)cc1	-1	i
Cn1c2c(c(=O)n(C)c1=O)C1c3ccccc3OCC1C(C)(C)O2 (configuration not stated)	-3.52	i

# Next part
structure	KCNQ2 inh baseline	KCNQ2 inh
Cc1nn(-c2ccccc2)c(/N=C/c2ccccc2O)c1-c1ccccc1	0.2*	-10.8*
CC(C)C(c1nnnn1Cc1ccccc1)N1CCN(Cc2ccc3c(c2)OCO3)CC1 (configuration not stated)	0.36	i
C=CCSc1nnc(NC(=O)c2c(CC)noc2C)s1	-1	i
CCN(CC)c1ccc2cc(C(N)=O)c(=O)oc2c1	6.43	i
N#Cc1cnn2ccn(C3OC(CO)C(O)C3O)c12 (configuration not stated)	-0.58	i
Cc1nn(S(=O)(=O)c2ccc(Cl)cc2)c(C)c1Sc1ccc([N+](=O)[O-])cc1	0.64	i
CCc1c(C)nc(N)n2c(SCC(=O)N3CCCc4ccccc43)nnc12	-1.43	i
C(=C(c1ccccc1)c1ccccc1)c1ccccn1	0.97	i

# (further entries)
structure	KCNQ2 inh baseline	KCNQ2 inh
CCN(c1ccc(OC)cc1)S(=O)(=O)N1CCCC(C(=O)NCc2cccc(C)c2)C1 (configuration not stated)	2.23*	-6.37*
O=C(Cn1c(C(=O)N2CCN(C3CCCCC3)CC2)cc2sccc21)c1ccccc1	1.46	i
Cc1nc(Cl)sc1C(=O)Nc1ccccc1	0.98	i
COc1ccc(C(=O)c2ccccc2)c(OCC(=O)NC2CC2)c1	0.03	i
COc1ccc(C2C(=O)N(CCc3ccccc3)CC(=O)N2C2CCCC2)cc1 (configuration not stated)	-0.22	i
CC(C)Oc1ccccc1C1Nc2ccccc2C(=O)N1c1ccc2c(c1)OCCO2 (configuration not stated)	-0.38	i
COc1ccc(/C=C/C(=O)O)cc1S(=O)(=O)N1CCC(Cc2ccccc2)CC1	-0.03	i
O=C(Nc1ccon1)c1cnc2sccn2c1=O	0.39	i

# (further entries)
structure	KCNQ2 inh baseline	KCNQ2 inh
COc1ccc(C(=O)NC(=S)NCc2ccco2)cc1	0.9	i
C=CCn1c(SCC(=O)NC2CCS(=O)(=O)C2)nnc1-c1ccncc1 (configuration not stated)	-3.75	i
COc1cccc(NC(=O)CN(c2cccc(OC)c2)S(C)(=O)=O)c1	0.02	i
O=C(OCCN1CCN(c2ncc(C(F)(F)F)cc2Cl)CC1)c1ccc(F)cc1	-0.74	i
COc1ccc2c(C)c(C(=O)NCC(C)O)oc2c1OC (configuration not stated)	1.17	i
COc1ccc(/C=N\NC(=O)CCN2CCN(c3ccccc3)CC2)cc1OC	1.93	i
O=S(=O)(Nc1ccccc1)c1ccc(NS(=O)(=O)c2cccs2)cc1	0.41	i
Fc1ccccc1C1c2[nH]c3ccccc3c2CCN1Cc1ccoc1 (configuration not stated)	-0.07	i

# (listing goes on)
structure	KCNQ2 inh baseline	KCNQ2 inh
COC(=O)c1cccc(C(=O)N2CCCC(CCC(=O)N(C)CCc3ccccn3)C2)c1 (configuration not stated)	1.32	i
COc1cc(/C=N/NC(=O)c2ccc3ccccc3c2)ccc1Oc1ccc([N+](=O)[O-])cn1	-0.46	i
COc1ccc(CC(=O)Oc2ccc(C)cc2Br)cc1S(=O)(=O)N1CCOCC1	0.95	i
CC1SCCN1S(=O)(=O)c1ccc2ccccc2c1 (configuration not stated)	-0.67	i
Brc1ccc2c(c1)C(c1cccnc1)=NNC(c1cccs1)=N2	-0.2	i
CCOc1ccc(NS(=O)(=O)c2ccc(C(=O)N(C)Cc3cccc(OC)c3OC)cc2)cc1	-0.26	i

# Screening data: PubChem BioAssay, Johns Hopkins Ion Channel Center
